Screening data deposited in PubChem BioAssay by several laboratories.
KCNQ1 block – inhibitors of human KCNQ1 potassium channel | AID 2642 | CHO-K1 KCNQ1, FluxOR thallium flux fluorescence; active compounds read high | hit rate 1.3% among 310,000 | B-score at 10 µM | P51787;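 active = compounds whose thallium flux B-score, printed positive for inhibition, exceeds three library SD while starting fluorescence stays within three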;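 note: channel opened by potassium depolarization with thallium stimulus after 20 min compound exposure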
Target sequence (P51787 whole entry, looked up): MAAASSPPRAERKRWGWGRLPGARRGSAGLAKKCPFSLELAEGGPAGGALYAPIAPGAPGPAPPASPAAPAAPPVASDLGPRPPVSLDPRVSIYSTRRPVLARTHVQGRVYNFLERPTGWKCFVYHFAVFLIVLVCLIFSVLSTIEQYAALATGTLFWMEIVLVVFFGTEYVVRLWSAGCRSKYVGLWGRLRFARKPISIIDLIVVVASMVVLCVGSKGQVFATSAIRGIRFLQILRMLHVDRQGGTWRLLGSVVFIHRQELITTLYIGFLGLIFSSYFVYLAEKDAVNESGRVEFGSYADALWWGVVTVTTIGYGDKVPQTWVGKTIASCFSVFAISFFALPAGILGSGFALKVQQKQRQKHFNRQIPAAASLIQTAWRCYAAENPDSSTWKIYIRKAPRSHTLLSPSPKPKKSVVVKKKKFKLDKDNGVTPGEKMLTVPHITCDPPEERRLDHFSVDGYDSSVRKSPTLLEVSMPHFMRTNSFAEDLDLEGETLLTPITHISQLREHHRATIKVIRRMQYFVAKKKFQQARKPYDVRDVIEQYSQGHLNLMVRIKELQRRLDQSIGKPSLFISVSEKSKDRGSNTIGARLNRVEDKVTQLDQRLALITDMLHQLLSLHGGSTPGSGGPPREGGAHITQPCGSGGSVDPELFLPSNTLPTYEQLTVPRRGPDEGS
KCNK3 block – human KCNK3 channel inhibition, primary screen. CHO-KCNK3 thallium flux, FluxOR fluorescence; active compounds read low. O14649. B-score at 10 µM. hit rate 0.84% among 340,000. AID 602410;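 active = B-score under library mean minus 4 SD, starting fluorescence ratio at most library mean plus 5 SD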;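 note: more negative B-score means stronger inhibition of thallium flux through KCNK3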
GSK3beta inhib – inhibitors of human GSK3beta kinase | P49841 | GST-GSK3beta kinase, ADP-Glo luminescence, 60 min; active compounds read low | activity score (negative = inhibition), % at 10 µM | hit rate 0.038% among 300,000 | AID 2097;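 active = more than half of replicate wells score below -50%, meaning over 50% inhibition versus plate controls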;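 note: 0% = median DMSO wells and -100% = median GW8510 positive control wells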
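Test system: GST-fused GSK3beta enzyme, cell-free | Quantity: 1.6 ng GST-GSK3beta enzyme per well | Reagent: 25 µM ATP with peptide substrate | Schedule: 60 min enzyme reaction, room temperature | Signal: Luminescent ADP-Glo measurement of ADP formed | Read-out basis: Score relative to plate controls | Control set: DMSO and 20 µM GW8510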
PolyA inhibitor – yeast polyadenylation inhibition. S. cerevisiae SKY197-pL101 polyadenylation reporter, beta-gal luminescence; efflux-impaired pdr1/pdr3 knockout yeast; score 100 = 6 SD above DMSO. AID 1875. hit rate 0.02% among 300,000. calls only at 12 µM;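 active = lowest replicate activity score at least 50, where 100 means six control SD above control mean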;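 note: yeast exposed to compound for 9 h at 30 °C; higher score means more reporter readthrough which indicates perturbed polyadenylation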
KCNQ1 act – potentiators or activators of human KCNQ1 potassium channel; B-score at 10 µM; P51787; hit rate 0.35% among 310,000; AID 2648; CHO-K1 KCNQ1, thallium flux FluxOR fluorescence; active compounds read high;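 active = fluorescence ratio B-score, a plate-corrected score, at least three library SD, with initial intensity B-score within 5 SD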
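Medium – assay buffer, equal DMSO in all wells · Material – CHO-K1 cell line with stable KCNQ1 potassium channel expression · Signal – kinetic FluxOR thallium fluorescence, 10-s 1-Hz baseline, 110-s post-stimulus read · Compound – single concentration per compound, DMSO matched to controls · Schedule – 37 °C overnight plating, 90-min dark dye load, 20-min compound pretreatment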
RGS4 block – human RGS4 inhibition; HEK293 M3R/RGS4 inducible, Fluo-4 calcium flux; active compounds read high; triggered by carbachol at its EC20; B-score at 10 µM; hit rate 0.45% among 310,000;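 active = B-score, a plate-corrected calcium signal, over three deviations above library mean, with baseline fluorescence within five deviations of library mean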;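 note: RGS4 expression induced by doxycycline in cells with stable M3 receptor; B-score is computed from the integrated fluorescence ratio over baseline after carbachol; higher B-score means a larger calcium signal and so more RGS4 inhibition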
Target sequence (P49798 whole entry, looked up): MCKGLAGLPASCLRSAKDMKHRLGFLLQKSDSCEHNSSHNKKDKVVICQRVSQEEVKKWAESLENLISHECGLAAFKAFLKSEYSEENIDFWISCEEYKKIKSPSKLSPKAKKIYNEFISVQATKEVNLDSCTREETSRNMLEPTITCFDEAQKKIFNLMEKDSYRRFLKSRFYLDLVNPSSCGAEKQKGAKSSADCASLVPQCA
KCNK9 inh – inhibitors of human KCNK9 two-pore domain potassium channel; HEK293 KCNK9, FluxOR thallium flux fluorescence; active compounds read low; B-score at 10 µM; hit rate 1.2% among 310,000; AID 488922;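 active = ratio B-score over 3 SD below the library mean, with starting fluorescence within 5 SD of its mean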;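 note: negative B-score means less thallium flux so channel inhibition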
GSK3 alpha inh – inhibitors of human GSK-3 alpha kinase. P49840. AID 2650. inhibition, % at 10 µM. ADP-Glo luminescence, 60 min. hit rate 0.1% among 320,000;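 in the data active = inhibition above about 50%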;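 note: GST-tagged GSK-3 alpha with peptide substrate and 25 µM ATP; 0% = DMSO neutral wells and 100% = GW8510 positive control wells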
RGS4 pot – potentiators or activators of RGS4. hit rate 0.92% among 310,000. HEK293 M3R/inducible RGS4, carbachol calcium flux Fluo4; active compounds read low. AID 463111. B-score at 10 µM;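 active = B-score of the integrated calcium signal more than 4 SD below the library mean, with starting fluorescence not abnormally high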;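 note: negative B-score means reduced calcium response which marks RGS4 activation or potentiation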
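Assay system: Inducible-RGS4 HEK293 cells carrying M3 receptor | Schedule: Compound preincubation 20 min at room temperature before agonist | Signal: Kinetic calcium fluorescence imaging with Fluo4-AM dye, 2 µM | Read-out basis: B score from integrated fluorescence ratio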
hERG protect – shields human hERG channel from block by proarrhythmic agents | Q12809 | CHO-hERG, FluxOR thallium flux, dofetilide IC70 present | activation (rescue from dofetilide block), less the hit threshold, % at 10 µM | hit rate 0.51% among 310,000 | AID 1511;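 active = activation above the mean of controls blocked by dofetilide plus 5 SD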;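 note: thallium influx through hERG after potassium depolarization seen as dye fluorescence rise; in these data hits start at about 4.7%; inactives centre near -7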
* = called active by the depositor; i = inactive; . = no result given. A portion of the library; rates above refer to the full screens.

A first look:
structure	KCNQ1 block	KCNK3 block	GSK3beta inhib	PolyA inhibitor	KCNQ1 act	RGS4 block	KCNK9 inh	GSK3 alpha inh	RGS4 pot	hERG protect
CC1(C)CC(=O)C(=C2SCCCS2)C(=O)C1	i	i	3	i	i	i	i	-1	i	-7
O=C(COc1ccccc1)NC(=S)Nc1ccc2c3c(cccc13)CC2	i	i	-2	i	i	i	i	-3	i	-10

The listing, previewed entries included:
structure	KCNQ1 block	KCNK3 block	GSK3beta inhib	PolyA inhibitor	KCNQ1 act	RGS4 block	KCNK9 inh	GSK3 alpha inh	RGS4 pot	hERG protect
CC1(C)CC(=O)C(=C2SCCCS2)C(=O)C1	i	i	3	i	i	i	i	-1	i	-7
O=C(COc1ccccc1)NC(=S)Nc1ccc2c3c(cccc13)CC2	i	i	-2	i	i	i	i	-3	i	-10
CC(Oc1ccc(F)cc1)C(=O)Nc1sc2c(c1C(=O)NCc1cccnc1)CCCC2 (centres undefined)	i	-8.9*	3	i	i	i	i	0	i	-10
CCCCCCN=CC1=C(O)C(C(=O)OC)C(C)(C)CC1=O (centres undefined)	i	i	3	i	i	i	i	-1	i	-3
Cc1ccc(S(=O)(=O)N(C)Cc2nc(-c3ccccn3)no2)cc1	i	i	-2	i	i	i	i	-1	i	-1
CC(C)[C@H](CO)Nc1nc(Nc2ccc(Cl)c(C(=O)O)c2)c2ncn(C(C)C)c2n1	i	i	-5	.	i	i	i	2	i	-4
COc1ccc(Nc2nc(N)c([N+](=O)[O-])c(N3CCCC3)n2)cc1	i	i	-4	i	i	i	i	19	i	-7
CCOC(=O)c1c(CSC(=N)N)n(-c2ccc(C)cc2)c2cc(Br)c(OC(C)=O)cc12	6*	-12*	-8	i	i	i	-8.7*	-1	i	-36
COc1ccc(S(=O)(=O)N2CCCC2C(=O)Nc2nnc(-c3cccnc3)s2)cc1 (centres undefined)	i	i	3	i	i	i	i	0	i	7.5*
O=C(c1cc(-c2cccs2)nc2ccccc12)N1CCN(S(=O)(=O)c2cccc(F)c2)CC1	i	i	-9	i	i	i	i	19	i	-21
CC(=O)Cc1nsc(NC(=O)c2ccccc2)n1	i	i	2	i	i	i	i	-1	i	-7
c1ccc(C(c2nnnn2C2CCCCC2)N2CCc3ccccc3C2)nc1 (centres undefined)	i	i	5	i	i	i	i	-3	i	-14
Cc1ccc(Nc2nc(N)nc(CN3CCN(C(=O)c4ccco4)CC3)n2)cc1Cl	i	i	1	i	i	i	i	0	i	-16
Cc1cc(NC(=O)CSc2nc(-c3cccs3)cc(C(F)(F)F)n2)no1	i	i	7	i	i	i	i	-3	i	-2
CCn1c(SCC(=O)Nc2cc(C)on2)nnc1-c1cccs1	i	i	1	i	i	i	i	-1	i	-4
COc1ccc(C2/C(=C(/O)c3ccccc3)C(=O)C(=O)N2C)cc1OC (centres undefined)	i	i	2	i	i	i	i	0	i	-2
COc1ccccc1-n1ccnc1SCC(=O)NC(C)(C)C	i	i	.	i	i	i	i	-2	i	-11
COc1ccc(C2=NOC(Cn3nc(-c4ccccc4)cc3C(=O)NCc3cccs3)C2)cc1 (centres undefined)	.	i	.	.	.	.	.	0	.	.
CCCOc1nc(N)c(C#N)c(-c2ccccc2F)c1C#N	i	i	0	i	i	i	i	.	i	-2
O=C(c1ccc2c(c1)OCO2)N1CCN=C1SCc1ccccc1	i	i	-2	i	i	i	i	-1	i	-1
C=CCn1c(CCNC(=O)c2cccs2)nnc1SCC(=O)Nc1cccc(F)c1	i	i	3	i	i	i	i	0	i	-8
Cc1cc(C)c2nc(N3CCCC3)c(C#N)cc2c1	i	i	-3	i	i	i	i	10	i	-6
CCCCc1cc(=O)oc2cc(O)cc(O)c12	i	i	-58*	i	i	i	i	72*	i	-15
COc1ccc2nc(NC(=O)C3CC(=O)N(c4ccc5c(c4)OCCO5)C3)sc2c1 (centres undefined)	.	i	.	.	.	.	.	.	.	.
Oc1ccccc1-c1nc(NCC2CCCO2)c2ccccc2n1 (centres undefined)	i	i	-1	i	i	i	i	.	-8.4*	-5
O=C(O)Cn1c(O)c(C2=c3ccccc3=NC2=O)sc1=O	i	i	-4	i	i	i	i	0	i	-13
CC1CCN(C(=O)CSc2nnc(-c3ccc(S(=O)(=O)N4CCOCC4)cc3)n2C)CC1	i	i	0	i	i	i	i	-4	i	1
Cc1ccc(-c2cnc(NC(=O)CCC(=O)N3CCCCC3)n2C)cc1	i	i	3	i	i	i	i	4	i	-19
O=C(NCc1ccc2c(c1)OCO2)c1cccc(N2CCCC2=O)c1	i	i	2	i	i	i	i	1	i	-5
O=C1NC(=O)/C(=C/c2cc3c(cc2Br)OCO3)S1	i	i	-2	i	i	i	i	0	i	7.0*
O=C(O)c1cc(O)ccc1-c1ccc(O)cc1	i	i	-2	.	i	i	i	2	i	-5
COc1ccc(N=C2NC(=O)/C(=C/c3ccc(O)c(OC)c3)S2)cc1	i	i	-1	i	i	i	i	7	i	-7
O=C(Cc1nc(-c2ccc(Br)s2)cs1)NCCN1CCOCC1	i	i	0	i	i	i	i	-7	i	-11
Cc1ccc(NC(=O)CN(C)C(=O)CCCN2C(=O)c3ccccc3C2=O)cc1	i	i	1	i	i	i	i	1	i	-18
O=S(=O)(NC1CCN(Cc2ccccc2)CC1)c1cccc2cccnc12	i	i	-1	i	i	i	i	-2	i	-11
Cc1cc(C(=O)Nc2cccc3ncccc23)no1	i	i	-3	i	i	i	i	4	i	-9
CN(Cc1ccccc1)C(=O)CCS(=O)(=O)c1cc2c(cc1Cl)NC(=O)CO2	i	i	0	i	i	i	i	-1	i	-8
CCc1ccc(C(CNC(=O)c2ccc3c(=O)n(-c4ccccc4F)c(=S)[nH]c3c2)N(C)C)cc1 (centres undefined)	i	i	-2	i	i	i	i	-1	i	-31
O=C1OC(Nc2ccc3ncccc3c2)c2ccccc21 (centres undefined)	i	i	3	i	i	i	i	-1	i	-5
Nc1c(Cl)cc(-c2cn(CCC(=O)O)c(-c3ccncc3)n2)cc1Cl	.	i	.	.	.	.	.	3	.	.
CCC(=O)N(CCC(c1ccco1)C(C)C)Cc1ccccc1 (centres undefined)	i	i	1	i	i	i	-11*	-2	i	-16
CCOc1ccc(NC(=O)Nc2cc(-c3ccccc3)sc2C(=O)OC)cc1	i	i	-2	i	i	i	i	-2	i	-6
COc1ccc(-c2csc(N(CCCN3CCOCC3)C(=O)CCl)n2)cc1	i	i	0	i	i	i	i	4	i	-10
O=C(Nc1nnc(-c2ccc3c(c2)CCCC3)o1)c1ccccc1Cl	i	i	2	i	12*	i	i	-3	i	-3
CC(C)CNC(=O)CCCc1ccccc1	i	i	-1	i	i	i	i	-5	i	-8
CCc1cc(=O)oc2cc(OC(C)=O)cc(OC(C)=O)c12	i	i	-37	i	i	i	i	39	i	-7
O=c1c2cc(Cl)cc(Cl)c2nc2n1CCC2	i	i	1	i	i	i	i	6	i	-9
COc1ccc2c(Cl)c(-c3nnco3)sc2c1	i	i	-2	i	i	i	i	-5	i	-5
CC1CC(C(F)F)n2nc(C(=O)Nc3sc4c(c3C#N)CCC(C(C)(C)C)C4)nc2N1 (centres undefined)	i	i	2	i	i	i	i	0	i	-8
Cc1c(/C=N/NC(=O)CNc2ccccc2)c2ccccn2c1C(=O)c1ccncc1	i	i	-4	i	i	i	i	0	i	-6
CC(=O)N1CCc2c(sc(NC(=O)CCS(=O)(=O)c3ccccc3)c2C(N)=O)C1	i	i	2	i	i	i	i	25	i	-10
O=C(OCc1nc2ccccc2s1)C1CCN(C2=NS(=O)(=O)c3ccccc32)CC1	i	i	2	i	i	i	i	2	i	-11
FC(F)(F)c1ccc(CSc2nccn2-c2ccccc2)cc1	i	i	-30	i	i	i	i	-2	i	-15
COC(=O)c1c(NC(=O)CN2CCN(Cc3ccc4c(c3)OCO4)CC2)sc(C)c1C	i	i	0	i	i	i	i	5	i	-17
Cc1nn(-c2ccc(Cl)cc2)c2[nH]c(=O)c(CNCc3ccc4c(c3)OCO4)cc12	i	i	1	i	i	i	i	-2	i	-16
CN(CC(=O)Nc1nc2ccc(F)cc2s1)S(=O)(=O)c1ccc(Cl)cc1	i	i	-21	i	i	i	i	-3	i	3
CC(C)n1cnc2c(Nc3ccc(F)c(Cl)c3)nc(NCCO)nc21	i	i	-1	i	i	i	i	1	i	-8
CC(C)NC(=S)Nc1ccc2cn[nH]c2c1	i	i	-4	i	i	i	i	48	i	-4
Nc1ncnc(Nc2ccc(F)cc2)n1	i	i	4	i	i	i	i	.	i	-9
COc1ccc(OC)c([C@@H]2OCCC=C[C@H]2C)c1	i	i	4	.	i	i	i	-1	i	-7

Next compounds follow:
structure	KCNQ1 block	KCNK3 block	GSK3beta inhib	PolyA inhibitor	KCNQ1 act	RGS4 block	KCNK9 inh	GSK3 alpha inh	RGS4 pot	hERG protect
S=c1[nH]nc(-c2ccccc2Cl)n1Cc1ccccc1	i	i	3	i	i	i	i	3	i	-10
Cc1cc(C)c(S(=O)(=O)Nc2cccnc2)c(C)c1	i	i	2	i	i	i	i	1	i	-9
Cc1ccc2[nH]c(C(=O)O)c(NC(=O)c3ccccc3[N+](=O)[O-])c2c1	i	i	5	i	i	i	i	-2	i	-3
Cc1nc(N2CCN(C(=O)c3ccco3)CC2)c2c3c(sc2n1)CCC3	i	i	3	i	i	i	i	2	i	-24
O=C(/C=C/c1ccc2c(c1)OCO2)NCc1ccco1	i	i	-11	i	i	i	i	14	i	-6
COc1ccc(-c2csc3ncn(Cc4ccccc4)c(=O)c23)cc1	i	i	-1	i	i	i	i	-3	i	-6
